rRNA inh HTS: inhibits bacterial ribosomal RNA function over humanized ribosomes. E. coli WT GFP vs humanized-ribosome RFP mutants, fluorescence, 24 h; active compounds read low; DMSO median 0, no signal -100. GFP signal change (wild-type ribosome), % (concentration not given with the values). 1.6% of 350,000 active;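 active = significant combined selectivity score with lowered wild-type GFP, culture density cut under 30%, mutant RFP and density less affected; inactive = any of these conditions unmet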; also: one replicate is shown; some compounds called inactive have numbers as strong as hits
RanGTP-Imp inh: inhibitors of RanGTP-importin-beta interaction, primary screen, biochemical, FRET, CFP-Ran, YFP-importin-beta, homogeneous | inhibition, % (test concentration not listed) | 1.1% of 300,000 active | cell-free CFP-Ran/YFP-importin-beta FRET ratio | AID 2216;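 active = most replicates above 15%; inconclusive = exactly half above 15%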;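 also: 0% = DMSO wells and 100% = Ran loaded with GDP instead of GTP; wells of about 40 µL received 100 nL stock; the first replicate is given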
ALR H2O2 inh: inhibitors of human sulfhydryl oxidase ALR | P55789 | 3.8% of 290,000 active | purified ALR, DTT oxidation, H2O2 HRP-luminol luminescence | AID 485317 | inhibition, % (no concentration beside the values);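 active = mean and each replicate at 75% or more; inconclusive = only one of the two met; inactive = neither met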;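 also: stock transfer was 7.5 nL into about 7.5 µL; 0% = neutral wells and 100% = wells with inactivated enzyme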
Target sequence (P55789 whole entry, looked up): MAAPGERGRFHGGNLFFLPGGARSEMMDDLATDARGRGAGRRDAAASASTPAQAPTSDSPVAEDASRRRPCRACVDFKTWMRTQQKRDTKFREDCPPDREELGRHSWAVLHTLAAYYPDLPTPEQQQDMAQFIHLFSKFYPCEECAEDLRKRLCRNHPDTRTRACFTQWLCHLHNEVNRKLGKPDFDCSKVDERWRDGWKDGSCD
FGF22 binding: FGF22 (human) thermal shift binding | calls only at 9.99 µM | 1.5% of 340,000 active | Q9HCT0 | recombinant FGF22 thermal shift, SYPRO orange fluorescence; percent of sucrose octasulfate shift, DMSO zero;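 active = melting point raised past a set limit in the mean and every replicate; inconclusive = no clear call; three in four hits are not shown here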
Target sequence (Q9HCT0 whole entry, looked up): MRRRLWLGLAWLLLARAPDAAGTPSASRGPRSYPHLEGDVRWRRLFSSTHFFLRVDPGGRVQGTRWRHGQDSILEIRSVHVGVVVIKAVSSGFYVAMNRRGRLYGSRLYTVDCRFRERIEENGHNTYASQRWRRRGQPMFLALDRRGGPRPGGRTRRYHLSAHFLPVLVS
AF4-AF9 inh: blocks AF4 peptide binding to human AF9; 0.47% of 350,000 active; AlphaScreen, biotin-AF4 peptide binding to FLAG-AF9; P42568; AID 651704; inhibition, % at 10 µM;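 active = every replicate reaching a set inhibition limit, whatever the replicate mean, cut at about 25% in these data; inconclusive = mean inhibition reaches that limit but some replicates miss it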;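 also: 0% = plate neutral control median and 100% = total signal loss; the record names both 10 and 1 µM as test concentration; the first replicate is given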
Target sequence (P42568 whole entry, looked up): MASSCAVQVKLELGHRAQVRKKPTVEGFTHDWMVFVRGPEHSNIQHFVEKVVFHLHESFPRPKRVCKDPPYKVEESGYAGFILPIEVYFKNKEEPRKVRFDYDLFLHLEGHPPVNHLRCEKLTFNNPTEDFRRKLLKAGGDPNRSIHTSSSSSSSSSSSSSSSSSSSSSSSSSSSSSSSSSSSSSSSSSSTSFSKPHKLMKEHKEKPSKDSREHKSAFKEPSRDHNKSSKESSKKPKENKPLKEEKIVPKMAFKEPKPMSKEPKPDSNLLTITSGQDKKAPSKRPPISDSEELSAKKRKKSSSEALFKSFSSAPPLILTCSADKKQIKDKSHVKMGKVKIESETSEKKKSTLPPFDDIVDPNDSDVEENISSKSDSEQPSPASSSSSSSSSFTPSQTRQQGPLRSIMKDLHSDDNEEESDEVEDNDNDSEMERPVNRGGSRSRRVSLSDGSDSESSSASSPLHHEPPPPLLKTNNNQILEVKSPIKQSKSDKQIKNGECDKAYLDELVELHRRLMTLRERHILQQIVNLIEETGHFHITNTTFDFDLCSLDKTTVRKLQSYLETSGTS
Calb FLC: C. albicans growth modulation with fluconazole | growth inhibition, % (test concentration not listed) | AID 1979 | C. albicans CaCi-2 (fluconazole-resistant clinical isolate) + fluconazole, Alamar Blue growth, 48 h | 0.57% of 300,000 active;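 active = most replicates above 75%; inconclusive = exactly half above 75%; inactive = most below 75%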;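 also: all wells also contain fluconazole at 8 µg/ml as a sub-toxic cotreatment; 0% = median of DMSO wells and 100% = median of geldanamycin control wells; wells of about 8 µL received 7.5 nL stock; the first replicate is given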
T cruzi inh: T. cruzi replication inhibition; T. cruzi beta-gal in NIH3T3, luminescence, 90 h; inhibition, % (no concentration beside the values); 1.4% of 300,000 active; AID 1885;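 active = mean inhibition across valid replicates above about 55%, limit read from the data; inconclusive = mean below that limit but half or more replicates reach it; inactive = mean below it, under half of replicates reach it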;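 also: signal also drops with host cell toxicity which is not excluded here; 0% = plate median of DMSO wells and 100% = zero luminescence signal; higher percent means less beta-gal luminescence so fewer parasites; stock transfer was 50 nL into about 50 µL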
Beta cell apopt: beta cell apoptosis inhibition. INS-1E cytokine-induced death, ATP luminescence, 48 h; percent of positive-control rescue, neutral wells zero. protection from apoptosis, % (test concentration not listed). AID 435005. 0.8% of 300,000 active;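 active = all replicates at 75% or more, or half of them and the mean; inconclusive = half reach 75% but not the mean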;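 also: 0% = cytokine-treated negative control wells and 100% = positive control rescue; higher means more ATP so stronger rescue from cytokine killing; wells of about 40 µL received 100 nL stock; the first replicate is given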
rRNA inh HTS OD600: also measured in rRNA inh HTS; calls as there; OD600 change, %; measured here: OD600 growth;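 optical density of the mix in the first replicate; 0 = DMSO median and -100 = no signal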
rRNA inh HTS RFP: further read-out of rRNA inh HTS, marked with its call; RFP signal change, %; measured here: RFP humanized mutant strains;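 first replicate; 0 = DMSO median and -100 = no signal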
* marks the source's active call; other numbers are inactive results; i = inactive; u = inconclusive; x = no result given. Only part of the results is shown; rates above refer to the full screens.

SMILES | rRNA inh HTS | rRNA inh HTS OD600 | rRNA inh HTS RFP | RanGTP-Imp inh | ALR H2O2 inh | FGF22 binding | AF4-AF9 inh | Calb FLC | T cruzi inh | Beta cell apopt
CCOc1ccc(/C=C2/C(=O)N(c3ccc(OC)cc3)C(=S)N2CC(=O)OC)cc1OCC | x | x | x | 0.7 | -6 | x | x | 9 | 18 | 1
CSCC(C)N1CCC(CO)(CCCc2ccccc2)CC1 (stereo not drawn) | 11 | 10 | -0.8 | 6.4 | -2 | i | 1.6 | 8 | -6 | x
CCCc1nnc(SCC(=O)N2CCCCC2C)n1CC1CCCO1 (stereo not drawn) | x | x | x | 1.7 | x | x | x | -3 | -8 | -3
O=C(COc1cc(Cl)ccc1Cl)Nc1ccc2c(c1)CCC2 | -2 | 13 | 0.1 | 2.3 | -7 | i | 1.7 | -14 | 3 | -3
CN1CC=C2C(C#N)=C(N)C(C#N)(C#N)C(c3ccsc3)C2C1 (stereo not drawn) | x | x | x | 65* | 33 | x | x | 1 | 23 | -6
COc1ccc2c(c1)C(C)(CCN)C(=O)N2C (stereo not drawn) | 4 | 6 | 5.6 | 0.6 | 0 | i | -2.2 | -8 | -15 | -1
COc1ccc(NC(=O)Nc2ccccc2C)c(OC)c1 | x | x | x | 0.7 | -29 | x | x | 10 | 2 | 6
Cc1cc(NC(=O)CSc2ncnc3c2cnn3-c2cccc(Cl)c2)no1 | 19 | 11 | 2.5 | 0.7 | -4 | x | 0.1 | 9 | 1 | 2
O=C(c1ccc(-c2ccc([N+](=O)[O-])cc2Cl)o1)N1CCOCC1 | 11 | 2 | 0.8 | -4.0 | -21 | i | -1.6 | 23 | 8 | -4
CCC1(CC)Cc2ccccc2-c2[nH]c(=S)[nH]c(=O)c21 | x | x | x | -4.0 | 19 | i | -3.8 | -1 | -11 | -3
CCn1nc(C)c(NC(=O)CSc2nnc(-c3ccco3)n2C)c1C | x | x | x | -3.2 | 1 | x | x | -3 | -7 | -1
Cc1cc(C)n2nc(C(=O)N/N=C/c3ccc(Cl)cc3)nc2n1 | 19 | 20 | 0.7 | -0.5 | -5 | i | -2.4 | -1 | -14 | -8
CNC(=O)CSc1nnc(CCc2ccccc2)n1-c1ccccc1 | x | x | x | -3.3 | 2 | x | x | 5 | 23 | -2
Cc1ccccc1NC(=S)c1nc2ccccc2[nH]1 | x | x | x | 7.3 | 21 | i | 27* | 13 | 31 | 32
COc1ccccc1N1CCN(CC(=O)Nc2ccc(C)c(F)c2)CC1 | x | x | x | -1.8 | 1 | x | x | 3 | -19 | -14
COc1ccc(NC(=O)CN(C)C(=O)c2cccc(Oc3ccccc3)c2)cc1 | x | x | x | x | -1 | i | 2.7 | x | x | 7
O=C(OCC(=O)N1CCCc2ccccc21)c1ccc(Br)o1 | x | x | x | u | 8 | x | x | 1 | -3 | -3
CO/N=C(/C)CCS(=O)(=O)c1ccccc1 | 8 | 4 | 0.7 | 0.9 | 1 | i | -1.2 | -2 | 1 | -5
CCCCCCCN1C=CC(=O)CC1 | 6 | 6 | -0.6 | 3.3 | x | i | 1.4 | -2 | -3 | -4
Cc1ccc(SC[C@H](C)CN2CC[C@H](C(C)(C)C)CCC2=O)cc1 | -46 | -74 | -17 | -1.6 | -1 | i | 5.7 | -5 | 29 | 1
COC(=O)Nc1sc2c(c1C(N)=O)CCC(C)C2 (stereo not drawn) | 16 | 9 | 0.3 | 5.3 | -5 | i | -2.6 | 46 | -1 | -3
COC(=O)c1ccc2c(=O)n(-c3ccccc3)c(SCN3C(=O)c4ccccc4C3=O)nc2c1 | x | x | x | 4.0 | -5 | i | -2.0 | 2 | 6 | 106*
O=C(CNS(=O)(=O)c1ccc(Br)cc1Cl)OCC(=O)N1CCCC1=O | 1 | 8 | 0.8 | x | -1 | i | 0.7 | x | x | -4
C=CC#CC1(O)CC(C)[N+](C)(C)CC1C (stereo not drawn) | 17 | 15 | 0.2 | 6.3 | -1 | i | -6.9 | -21 | -16 | -2
Cc1ccc(OCC(O)CN2CCOCC2)c(C)c1 (stereo not drawn) | 15 | 16 | 2.1 | 7.9 | x | i | 5.0 | -5 | 1 | 0
NC(=O)[C@@H]1CCCN1Cc1nc(Cc2ccccc2F)no1 | 7 | 2 | -0.6 | 11 | x | i | -0.4 | 0 | -9 | -3
Cc1cc2oc(=O)cc(CN3CCN(Cc4ccccc4)CC3)c2cc1C | 5 | 7 | 0.7 | 0.8 | x | i | 2.5 | 3 | 47 | x
CC1=CC2=NC(=O)/C(=C\c3cccn3CCOc3cc(C)cc(C)c3)C(=N)N2O1 | -26 | -30 | -9.9 | -0.1 | 1 | i | 11 | 29 | 4 | 2
COc1ccc(CN(C)c2ncnc3sccc23)c(OC)c1OC | -11 | -11 | 5.5 | 9.1 | -1 | i | -1.1 | 13 | 21 | 10
Cc1c(N=C2C(=O)Nc3ccccc32)c(=O)n(-c2ccccc2)n1C | 0 | 3 | -2.2 | 4.1 | 12 | i | 4.3 | 0 | -12 | -4
Cn1cc(Cl)c(/C(N)=N/OC(=O)c2ccccc2C(F)(F)F)n1 | -2 | -8 | -1.1 | -1.5 | 0 | i | 1.8 | -8 | 17 | 4
COC(=O)CC1C(=O)NCCN1C(=O)c1cc(OC)c(OC)cc1OC (stereo not drawn) | -16 | -19 | 0.6 | -3.3 | x | i | -1.7 | -2 | -3 | -3
CC(C)(O)P(C)(=O)c1ccccc1 (stereo not drawn) | x | x | x | -1.2 | -6 | x | x | 15 | -14 | -3
CCOC(=O)c1[nH]c2ccc(OC)cc2c1NC(=S)N1CCN(c2ccccc2OC)CC1 | x | x | x | -0.5 | -23 | x | x | 23 | 11 | 12
Cc1cccc(CC(=O)NCCN2CCOCC2)c1 | 7 | 5 | 7.9 | 2.0 | 5 | i | 2.7 | -12 | -8 | -1
Cc1nn(-c2ccccc2)c(=S)c2ccccc12 | 13 | 15 | 1.6 | -0.6 | 0 | i | -0.2 | 4 | -14 | -5
COc1ccc(NC(=O)CSc2nnc(C3CCCCC3)o2)c(OC)c1 | x | x | x | 0.5 | -13 | x | x | 28 | 9 | -5
N/C(Cc1cccs1)=N\OC(=O)COc1ccccc1Cl | x | x | x | -0.6 | x | x | x | -7 | 7 | -1
Cc1ccc(-c2nc(CS(=O)CC(=O)NCCN(CC(C)C)CC(C)C)c(C)o2)cc1 (stereo not drawn) | x | x | x | 6.4 | 99* | x | x | -5 | -1 | -12
CC(OC(=O)c1cccn1C)C(=O)Nc1ccc2c(c1)OCO2 (stereo not drawn) | 6 | 14 | -0.5 | 4.4 | -6 | i | 3.9 | 9 | 2 | 1

Looked up one by one from above (3):
SMILES | rRNA inh HTS | rRNA inh HTS OD600 | rRNA inh HTS RFP | RanGTP-Imp inh | ALR H2O2 inh | FGF22 binding | AF4-AF9 inh | Calb FLC | T cruzi inh | Beta cell apopt
COC(=O)CC1C(=O)NCCN1C(=O)c1cc(OC)c(OC)cc1OC (stereo not drawn) | -16 | -19 | 0.6 | -3.3 | x | i | -1.7 | -2 | -3 | -3
N/C(Cc1cccs1)=N\OC(=O)COc1ccccc1Cl | x | x | x | -0.6 | x | x | x | -7 | 7 | -1
CC(OC(=O)c1cccn1C)C(=O)Nc1ccc2c(c1)OCO2 (stereo not drawn) | 6 | 14 | -0.5 | 4.4 | -6 | i | 3.9 | 9 | 2 | 1

Next section:
SMILES | rRNA inh HTS | rRNA inh HTS OD600 | rRNA inh HTS RFP | RanGTP-Imp inh | ALR H2O2 inh | FGF22 binding | AF4-AF9 inh | Calb FLC | T cruzi inh | Beta cell apopt
O=C(O)CCNS(=O)(=O)c1ccccc1Br | 14 | 7 | 1.9 | x | -29 | i | -1.2 | 11 | -9 | -6
Cc1cc(F)ccc1S(=O)(=O)Nc1ccccc1C(=O)N1CCCC1 | -1 | -1 | -1.2 | x | x | i | 1.0 | x | x | -6
Cn1c(Cn2c(=O)sc3ccccc32)nnc1SCc1ccc(F)cc1 | 6 | 1 | 0.3 | u | x | i | -5.0 | 8 | 3 | 35
CCOc1ccccc1N(CC(=O)N1CCc2ccccc2C1)S(C)(=O)=O | -2 | -5 | -1.4 | -3.5 | -4 | i | -0.4 | 2 | 1 | -1
CC(OCC(O)CN1CCCCC1CCO)c1ccc(Cl)cc1 (stereo not drawn) | 4 | 14 | 1.4 | -4.9 | -1 | i | 2.9 | -1 | 3 | -9
CCOC(=O)c1[nH]c(C)c(C(=O)NC)c1C | 12 | 8 | -0.2 | 3.8 | x | i | 2.8 | 3 | -3 | x
OCC[C@H]1C[C@@H](O)[C@H](O)[C@]2(CCCc3ccccc3O2)O1 | 2 | 8 | -8.7 | x | 11 | i | -13 | x | x | 1
CCCOc1ccc(CSC(CC(=O)O)C(=O)O)cc1 (stereo not drawn) | x | x | x | 0.4 | -8 | x | x | 1 | -10 | -9
O=C(Cc1ccc(NC2=NC3CS(=O)(=O)CC3S2)cc1)NCCc1ccccc1 (stereo not drawn) | 3 | 3 | -0.2 | 7.2 | -7 | i | 2.3 | -3 | -3 | 7
CC1=CC(C)(C)NC(=S)N1c1ccc2ccccc2c1 | -2 | 2 | 3.8 | 4.2 | -6 | i | 9.8 | 12 | -61 | 1
COCCCNC(=O)CN1C(=O)/C(=C/c2ccccc2)Sc2ccccc21 | -13 | -14 | -4.7 | -0.5 | 0 | i | 1.3 | -10 | 11 | 0
COc1ccc(NC(=O)CSc2nc3ccccc3nc2N2CCCCC2)cc1 | 5 | -2 | -6.2 | -1.7 | 4 | i | 4.7 | -2 | 25 | 1
CC(C)c1ccc(NC(=O)Cn2ncn3c(cc4ccccc43)c2=O)cc1 | -13 | -14 | -4.9 | 4.7 | 3 | i | -1.3 | -2 | 26 | 1
O=C1C2C3C=CC(C3)C2C(=O)N1CCN1CCN(Cc2ccc([N+](=O)[O-])cc2)CC1 (stereo not drawn) | 13 | 4 | -2.1 | 0.7 | -2 | i | -0.3 | -6 | 5 | 3
O=S(=O)(c1ccc2ccccc2c1)N1CCN=C1SCc1cccnc1 | x | x | x | u | 99* | x | x | 50 | 18 | -3
C/C=C(/C)C(=O)Nc1cccc(C2=NOC3(C2)C[C@@H](C(N)=O)N(C(=O)c2ccc(OC)cc2)C3)c1 (stereo partly drawn) | -5 | 5 | 1.1 | 3.6 | -4 | i | -14 | -1 | -17 | -2
CC(C)(C)NC(=O)C(=O)NC(=O)c1c(F)cccc1Cl | 20 | 16 | 2.6 | 7.2 | 2 | x | 1.3 | -4 | 8 | 0
COc1ccccc1N=c1oc2c(OC)cccc2cc1C(=O)NCc1ccco1 | x | x | x | 0.6 | 86* | x | x | -6 | 21 | -1
CC(NC(=S)NC1CCCCC1)c1ccccc1 (stereo not drawn) | -3 | -4 | -1.5 | 7.7 | -3 | i | -2.1 | -7 | -19 | x
COc1ccc(-c2cc(C)no2)cc1S(=O)(=O)N1CCN(c2cccc(C)c2)C(C)C1 (stereo not drawn) | 5 | 9 | 12 | 5.0 | -6 | i | 6.7 | 8 | 13 | 10
